Beta cell apopt: beta cell apoptosis inhibition. 0.8% of 300,000 active. protection from apoptosis, % (concentration not given with the values). AID 435005. INS-1E cytokine-induced death, ATP luminescence, 48 h; percent of positive-control rescue, neutral wells zero;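 active = all replicates at 75% or more, or half of them and the mean; inconclusive = half reach 75% but not the mean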;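 note: 0% = cytokine-treated negative control wells and 100% = positive control rescue; higher means more ATP so stronger rescue from cytokine killing; wells of about 40 µL received 100 nL stock; the first replicate is given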
AF4-AF9 inh: blocks AF4 peptide binding to human AF9; P42568; AlphaScreen, biotin-AF4 peptide binding to FLAG-AF9; inhibition, % at 10 µM; 0.47% of 350,000 active; AID 651704;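 active = every replicate reaching a set inhibition limit, whatever the replicate mean, cut at about 25% in these data; inconclusive = mean inhibition reaches that limit but some replicates miss it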;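 note: 0% = plate neutral control median and 100% = total signal loss; the record names both 10 and 1 µM as test concentration; the first replicate is given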
Target sequence (P42568 whole entry, looked up): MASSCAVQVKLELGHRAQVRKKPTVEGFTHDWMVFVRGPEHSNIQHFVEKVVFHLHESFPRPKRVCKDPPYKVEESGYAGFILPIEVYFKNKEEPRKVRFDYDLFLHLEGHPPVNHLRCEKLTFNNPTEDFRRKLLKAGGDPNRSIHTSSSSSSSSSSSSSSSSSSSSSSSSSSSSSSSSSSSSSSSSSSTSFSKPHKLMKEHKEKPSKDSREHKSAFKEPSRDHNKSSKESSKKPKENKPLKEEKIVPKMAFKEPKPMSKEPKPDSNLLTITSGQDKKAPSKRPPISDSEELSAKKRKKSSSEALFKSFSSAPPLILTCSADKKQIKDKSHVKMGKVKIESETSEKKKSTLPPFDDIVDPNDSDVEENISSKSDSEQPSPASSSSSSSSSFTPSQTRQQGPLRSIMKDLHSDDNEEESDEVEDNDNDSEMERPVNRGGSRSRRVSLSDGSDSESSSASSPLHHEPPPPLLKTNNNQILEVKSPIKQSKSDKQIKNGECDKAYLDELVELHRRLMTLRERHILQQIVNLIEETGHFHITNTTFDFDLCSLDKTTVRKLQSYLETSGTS
RanGTP-Imp inh: disruptors of Ran-importin-beta complex formation – biochemical, FRET, CFP-Ran, YFP-importin-beta, homogeneous, primary screen; cell-free CFP-Ran/YFP-importin-beta FRET ratio; inhibition, % (no concentration beside the values); 1.1% of 300,000 active;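 active = most replicates above 15%; inconclusive = exactly half above 15%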;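 note: 0% = DMSO wells and 100% = Ran loaded with GDP instead of GTP; wells of about 40 µL received 100 nL stock; the first replicate is given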
Calb FLC: C. albicans growth modulation with fluconazole; C. albicans CaCi-2 (fluconazole-resistant clinical isolate) + fluconazole, Alamar Blue growth, 48 h; AID 1979; growth inhibition, % (no concentration beside the values); 0.57% of 300,000 active;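 active = most replicates above 75%; inconclusive = exactly half above 75%; inactive = most below 75%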;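 note: all wells also contain fluconazole at 8 µg/ml as a sub-toxic cotreatment; 0% = median of DMSO wells and 100% = median of geldanamycin control wells; wells of about 8 µL received 7.5 nL stock; the first replicate is given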
FGF22 binding: shifts melting point of recombinant human FGF22 | Q9HCT0 | recombinant FGF22 thermal shift, SYPRO orange fluorescence; percent of sucrose octasulfate shift, DMSO zero | calls only at 9.99 µM | 1.5% of 340,000 active | AID 651658;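 active = melting point raised past a set limit in the mean and every replicate; inconclusive = no clear call; three in four hits are not shown here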
Target sequence (Q9HCT0 whole entry, looked up): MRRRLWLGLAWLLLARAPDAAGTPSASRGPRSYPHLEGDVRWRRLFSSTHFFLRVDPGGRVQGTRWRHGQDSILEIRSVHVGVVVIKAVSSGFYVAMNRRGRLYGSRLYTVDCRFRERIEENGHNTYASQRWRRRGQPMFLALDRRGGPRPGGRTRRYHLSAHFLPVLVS
Ecoli rRNA inh: inhibits bacterial ribosomal RNA function over humanized ribosomes; E. coli WT GFP vs humanized-ribosome RFP mutants, fluorescence, 24 h; stronger effect = lower value; DMSO median 0, no signal -100; GFP signal change (wild-type ribosome), % (concentration not given with the values); 1.6% of 350,000 active; AID 720706;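 active = significant combined selectivity score with lowered wild-type GFP, culture density cut under 30%, mutant RFP and density less affected; inactive = any of these conditions unmet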; note: one replicate is shown; some compounds called inactive have numbers as strong as hits
T cruzi inh: blocks replication of Trypanosoma cruzi; T. cruzi beta-gal in NIH3T3, luminescence, 90 h; inhibition, % (concentration not given with the values); 1.4% of 300,000 active; AID 1885;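 active = mean inhibition across valid replicates above about 55%, limit read from the data; inconclusive = mean below that limit but half or more replicates reach it; inactive = mean below it, under half of replicates reach it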;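 note: signal also drops with host cell toxicity which is not excluded here; 0% = plate median of DMSO wells and 100% = zero luminescence signal; higher percent means less beta-gal luminescence so fewer parasites; stock transfer was 50 nL into about 50 µL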
ALR inh: human ALR oxidase inhibition via reduced H2O2; 3.8% of 290,000 active; P55789; inhibition, % (test concentration not listed); purified ALR, DTT oxidation, H2O2 HRP-luminol luminescence; AID 485317;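 active = mean and each replicate at 75% or more; inconclusive = only one of the two met; inactive = neither met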;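 note: stock transfer was 7.5 nL into about 7.5 µL; 0% = neutral wells and 100% = wells with inactivated enzyme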
Target sequence (P55789 whole entry, looked up): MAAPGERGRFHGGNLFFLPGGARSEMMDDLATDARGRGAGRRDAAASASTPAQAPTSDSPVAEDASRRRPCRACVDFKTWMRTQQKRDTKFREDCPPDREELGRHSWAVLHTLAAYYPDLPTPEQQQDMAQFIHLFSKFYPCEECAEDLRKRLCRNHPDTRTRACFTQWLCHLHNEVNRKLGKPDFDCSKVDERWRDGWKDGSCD
Ecoli rRNA inh OD600: further read-out of Ecoli rRNA inh, marked with its call; OD600 change, %; measured here: OD600 growth;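 optical density of the mix in the first replicate; 0 = DMSO median and -100 = no signal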
Ecoli rRNA inh RFP: further read-out of Ecoli rRNA inh, marked with its call; RFP signal change, %; measured here: RFP humanized mutant strains;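 first replicate; 0 = DMSO median and -100 = no signal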
Starred values were filed as active, the others as inactive; i = inactive; ? = inconclusive; / = not tested or not shown.

SMILES	Beta cell apopt	AF4-AF9 inh	RanGTP-Imp inh	Calb FLC	FGF22 binding	Ecoli rRNA inh	Ecoli rRNA inh OD600	Ecoli rRNA inh RFP	T cruzi inh	ALR inh
NC(=O)COc1ccccc1C1=NO[C@@](CC(=O)O)(C(=O)Nc2ccc3c(c2)OCCO3)C1	/	-0.7	2.8	1	i	10	14	0.8	-6	/
CC(=O)Nc1cccc(/C(C)=N/NC(=S)NC(C)C)c1	-2	2.3	-4.1	22	i	-4	12	-2.2	-7	-9
CCc1noc(C)c1C(=O)Nc1nc(-c2ccc(OC)cc2OC)cs1	21	-3.5	9.4	2	i	0	-4	7.1	13	-7
O=C(O)CCC(=O)OCC1CCCCC1	/	/	0.1	0	/	11	11	0.5	-20	-30
O=C(CC1N=C2c3ccccc3N=C(SCc3ccccc3Cl)N2C1=O)NCc1ccco1 (stereo not given)	19	/	0.4	-6	/	/	/	/	3	/
Cc1nc2sc(C(c3ccccc3)N3CCC(O)CC3)c(O)n2n1 (stereo not given)	-5	/	0.4	0	/	/	/	/	-7	-1
CCn1cnc2cc(NCc3ccncc3)ccc21	-4	/	-3.4	2	/	/	/	/	-2	82*
NC(=O)CCn1c(=O)oc2ccccc21	1	/	-1.2	2	/	/	/	/	-14	-7
O=C(C(=O)c1ccc(O)cc1)c1ccccc1	-12	-1.8	-0.6	3	i	-3	3	-0.4	-3	-4
NC(=O)CSc1nnc(Cn2c(=O)sc3ccccc32)n1CCc1ccccc1	-5	0.6	-3.7	-6	i	0	2	0.2	1	-10
CN(CC(=O)Nc1ccc(Cl)cc1)C(=O)c1sccc1-c1ccccc1	2	3.0	/	/	i	-3	-29	-4.2	/	-3
NC(=O)C1CCN(c2nc(C3CC3)nc3c2nnn3Cc2ccccc2)CC1	-3	/	-3.0	24	/	/	/	/	-6	2
CC(C)CN(C(=O)COC(=O)Cc1cccc2ccccc12)c1c(N)n(Cc2ccccc2)c(=O)[nH]c1=O	-7	-0.9	-2.0	8	i	-1	2	-1.4	6	-1
CC1CCCN(S(=O)(=O)c2cccc3nonc23)C1 (stereo not given)	0	5.2	-3.7	-8	i	-9	3	-5.3	0	-8
Cc1ccc(C)c(NCC(=O)NNC(=S)Nc2ccccc2)c1	-1	-2.0	-3.0	1	i	-16	-10	-6.3	-7	71
CCCSc1ccc(-c2nn(-c3ccccc3)cc2/C=C(/C#N)C(=O)N2CCOCC2)cc1	20	?	-1.3	-7	i	6	-2	0.5	17	-6
CC(=O)Nc1ncc2c(n1)CC(c1ccco1)CC2=O (stereo not given)	2	/	0.4	1	/	/	/	/	5	-2
Nc1c(C(=O)Nc2ccc(F)cc2)nnn1-c1cccc(C(F)(F)F)c1	1	-2.0	8.0	17	i	-24	-66	-7.7	17	/
Cc1ccc(C(=O)CSc2nnc3n2CCCCC3)s1	-3	1.0	/	/	/	-2	-4	-1.2	/	19
O=C(NNC(=O)c1ccc(NC(=O)C2CC2)cc1)c1ccc(F)cc1	-2	-1.0	/	3	i	-1	3	1.4	/	-10
Fc1ccc2c(c1)C(c1ccncc1)=NNC(c1ccccc1)=N2	/	/	-2.8	0	/	/	/	/	-1	-2
CCCCn1c(=O)c(CCC(=O)OCC(=O)NC(=O)NCCC(C)C)nc2ccccc21	1	-1.3	/	6	/	-6	7	3.0	-3	0
COc1ccc(OCc2cc(C(=O)NCC(C)Oc3cccnc3)no2)c(Cl)c1 (stereo not given)	/	0.7	0.4	9	i	-15	-29	-5.6	25	-13
CCC1=NN(C(=O)c2ccc(Cl)cc2)C(O)(c2ccc(C)cc2)C1 (stereo not given)	5	0.8	-2.8	0	i	-3	-15	2.0	4	-17
O=C(NC1CCCc2ccccc21)c1cncc(Br)c1 (stereo not given)	9	/	3.2	2	/	/	/	/	-3	2
O=c1c(/C=C(\O)c2ccc(F)cc2)nc2ccccc2n1-c1ccccc1	3	/	77*	-5	/	/	/	/	39	-4
Cc1nnc(SCC(=O)Nc2sccc2C#N)n1Cc1ccccc1	/	/	2.0	-1	/	/	/	/	1	-4
COC(=O)C(Cc1ccc(O)cc1)NC(=O)C12CC3CC(CC(C3)C1)C2 (stereo not given)	-7	0.7	-1.7	-10	i	8	4	2.9	-6	29
CN(C)S(=O)(=O)N1CCN(C(=O)c2cccs2)CC1	1	2.8	2.4	-2	i	6	15	9.9	-11	1
O=C(Nc1cccc(NC(=O)c2ncn[nH]2)c1)c1cccc(Cl)c1	-11	1.0	0.3	-4	i	-6	8	-2.0	42	3
CCCn1c(SCC(=O)NCCc2ccccc2)nnc1-c1ccco1	-4	/	0.4	1	/	/	/	/	-3	-2
O=C(c1c[nH]c(C(=O)C(Cl)(Cl)Cl)c1)c1ccccc1Br	-18	-1.0	-0.5	-4	i	6	-2	-1.9	-14	3
Cc1ccc(S(=O)(=O)Nc2nc3ccccc3nc2N2CCOCC2)cc1	1	-1.6	/	/	i	3	-8	-2.8	/	2
CCOc1ccc(/C=C2/SC(=O)NC2=S)cc1	20	/	-186	3	/	/	/	/	-17	11
Cc1ccc(NC(=O)[C@H](C)NC(=O)C2CCN(C(=O)[C@H](CC(C)C)NC(=O)OC(C)(C)C)CC2)cc1	-3	-1.3	-3.7	-7	i	10	12	-1.2	-18	-17
CC(=O)NCc1ccc(S(=O)(=O)N/N=C/c2ccc(N(C)C)cc2)cc1	0	3.0	2.3	33	i	1	1	-0.1	-31	98*
CCCCC(=O)Nc1cccc(NC(=O)c2ccccc2Br)c1	6	/	-2.3	-12	/	/	/	/	10	3
CC(=O)c1cccc(NC(=O)/C(=C\c2cccnc2)NC(=O)c2ccccc2)c1	2	4.5	-0.7	-4	i	2	10	-1.8	7	-1
CN(C)/C=N/c1nc2nccc(-c3ccc(F)cc3)n2n1	2	-0.6	-3.0	-2	/	11	3	1.4	-12	-5
Fc1cccc(CSc2nnc3c(n2)[nH]c2ccccc23)c1	30	-0.1	1.4	0	i	8	19	-1.0	6	3
O=C(Nc1ccccc1)Nc1ccc(NC(=O)c2ccccc2O)cc1	2	-0.7	2.7	9	i	2	4	-1.1	-11	1
CCOc1ccc(NC(=O)CN2C(=O)COc3ccc(S(=O)(=O)N4CCCCC4)cc32)cc1	1	5.0	3.2	-11	i	-37	-43	-11	3	/
Cc1cc(C)cc(N=Cc2[nH]c3ccc(Br)c(Cl)c3c2O)c1	-14	4.6	-3.8	-14	i	-33	-17	-18	-4	/
COC(=O)c1cccc(N(C(=O)c2ccco2)C(C(=O)NC2CCCC2)c2ccco2)c1 (stereo not given)	-1	/	?	-2	/	/	/	/	2	4
Cn1c(=O)[nH]c(=O)c2c1nc(NCCCn1ccnc1)n2Cc1cccc(Br)c1	0	/	?	9	/	/	/	/	1	5
COc1cc(/C=N/Nc2nc(=O)[nH]nc2C)cc(OC)c1O	/	-0.2	-1.8	-5	i	0	8	0.6	6	93*
CC1CCN(c2ccc3c(c2)S(=O)(=O)c2cccc(C(=O)O)c2C3=O)CC1	-7	0.1	/	/	i	6	3	6.9	/	6
S=c1[nH]nc(-c2ccc(Br)o2)n1Cc1ccccc1	-4	-37	0.6	9	i	-53	-73	-35	2	64
C=C(C)[C@@H]1CC=C(CN2CCC(N3CCC(C(=O)N4CCCC4)CC3)CC2)CC1	14	9.5	2.2	-14	i	6	1	3.3	18	-1
CCOC(=O)C(NC(=O)CC)(Nc1cc(C)on1)C(F)(F)F (stereo not given)	-1	/	1.7	6	/	/	/	/	1	-1

More compounds
SMILES	Beta cell apopt	AF4-AF9 inh	RanGTP-Imp inh	Calb FLC	FGF22 binding	Ecoli rRNA inh	Ecoli rRNA inh OD600	Ecoli rRNA inh RFP	T cruzi inh	ALR inh
CC(=O)OCC1OC(Sc2cccc3cccnc23)C(OC(C)=O)C(OC(C)=O)C1OC(C)=O (stereo not given)	16	/	1.9	-5	/	/	/	/	17	-2
CC(C)(C)C(=O)NC(c1ccccc1)c1c(O)ccc2ccccc12 (stereo not given)	5	-2.1	0.2	3	i	-8	-4	2.9	14	-29
CN(CC(=O)Nn1cnnc1)S(=O)(=O)c1ccc(Br)cc1	0	/	-0.6	-2	/	/	/	/	-15	-19
COc1ccc(OC)c(CN2C(=O)c3ccccc3C2C(=O)NCc2cccnc2)c1 (stereo not given)	/	0.8	1.8	-1	i	8	10	2.7	-19	-9
CN(C(=O)COC(=O)/C=C/c1ccc2ccccc2n1)c1c(N)n(Cc2ccccc2)c(=O)[nH]c1=O	-11	0.9	/	/	i	2	-4	-0.8	/	5
N#CCNc1ccc([N+](=O)[O-])cc1C#N	-2	3.0	0.1	-13	i	9	1	-1.3	3	-4
C=CCN1CC(=O)N2C(c3ccccc3)c3[nH]c4ccccc4c3C[C@H]2C1=O (stereo not given in full)	-4	13	3.9	11	i	-5	-5	2.7	-15	-8
CCOCCCn1c(SCC(=O)NCc2ccco2)nc2c(sc3ccccc32)c1=O	-9	/	2.8	12	/	4	4	-0.4	13	-1
CCCN1CCC(=O)N([C@H](COc2ccccc2)Cc2ccccc2)CC1	-2	-9.9	1.1	-5	i	4	9	-10	15	-2
CCc1sc(C(=O)NCc2ccco2)cc1C	1	0.1	0.6	1	i	-1	4	-2.0	-1	-3
Cc1cc(C(=O)N2CCCC(N3CCN(c4cccc(C(F)(F)F)c4)CC3)C2)c(C)o1 (stereo not given)	1	7.4	3.4	-11	i	4	-36	-0.8	13	-6
O=C(NC1CC1)c1ccc(-c2ccccc2)cc1	2	-1.5	1.6	1	i	13	-5	2.7	-2	-1
NC(=O)C1(N2CCCCC2)CCN(C(=O)NC2CCCCC2)CC1	-2	/	-3.5	1	/	/	/	/	-11	-23
Cn1ncc(Cl)c1C(=O)Nc1ccc2c(c1)OCO2	-3	-9.3	3.1	-14	i	0	8	0.0	-7	-28
CCOC(=O)NC(NCC(O)c1ccccc1)(C(F)(F)F)C(F)(F)F (stereo not given)	5	/	-1.6	0	/	/	/	/	-5	-16
Cc1ccc(C(=O)C2COC(=O)C2)cc1 (stereo not given)	3	/	3.2	21	/	/	/	/	-11	54
S=C(NCC1CCCO1)N1CCN(c2nc(-c3ccc(Cl)cc3)cs2)CC1 (stereo not given)	4	0.4	-2.8	20	i	-18	-8	12	33	0
CCN1CCN(CCNC(=O)c2ccc3nc(-c4cccc(C)c4)c(-c4cccc(C)c4)nc3c2)CC1	37	28*	-0.5	5	i	-57	-80	-17	48	3

Screens deposited in PubChem by Broad Institute.

This is a subset (hit frequency here may not be typical).
